Screening results: PubChem BioAssay, several laboratories
Beta apoptosis: inhibitors of cytokine-induced beta cell apoptosis, primary screen, luminescence. INS-1E cytokine-induced death, ATP luminescence, 48 h; percent of positive-control rescue, neutral wells zero. protection from apoptosis, % (test concentration not listed). AID 435005, 2010. 300,000 compounds, 0.8% hits;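 active = all replicates at 75% or more, or half of them and the mean; inconclusive = half reach 75% but not the mean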;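 note: 0% = cytokine-treated negative control wells and 100% = positive control rescue; higher means more ATP so stronger rescue from cytokine killing; wells of about 40 µL received 100 nL stock; the first replicate is given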
FGF22 binding: binders of human FGF22 protein, primary screen, FGF22 synaptogenesis inhibitor project, biophysical, thermal shift, single point | recombinant FGF22 thermal shift, SYPRO orange fluorescence; percent of sucrose octasulfate shift, DMSO zero | calls only at 9.99 µM | 340,000 compounds, 1.5% hits;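 active = melting point raised past a set limit in the mean and every replicate; inconclusive = no clear call; three in four hits are not shown here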
Target sequence (Q9HCT0 whole entry, looked up): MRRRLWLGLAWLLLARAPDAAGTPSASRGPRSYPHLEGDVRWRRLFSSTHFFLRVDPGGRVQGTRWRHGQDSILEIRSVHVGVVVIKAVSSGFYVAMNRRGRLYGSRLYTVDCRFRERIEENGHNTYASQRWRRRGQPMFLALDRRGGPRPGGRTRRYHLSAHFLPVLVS
Ecoli rRNA inh: reduced GFP signal of wild-type E. coli, primary screen, bacterial rRNA inhibitor project, GFP/RFP fluorescence, OD600, single point. 350,000 compounds, 1.6% hits. GFP signal change (wild-type ribosome), % (no concentration beside the values). E. coli WT GFP vs humanized-ribosome RFP mutants, 24 h; hits give low values; DMSO median 0, no signal -100. AID 720706, 2013;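 active = significant combined selectivity score with lowered wild-type GFP, culture density cut under 30%, mutant RFP and density less affected; inactive = any of these conditions unmet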; note: one replicate is shown; some compounds called inactive have numbers as strong as hits
UCH37 inh: inhibitors of human UCH37 deubiquitinase, primary screen, biochemical, Ub-AMC cleavage, fluorescence | Ubiquitin carboxyl-terminal hydrolase isozyme L5 (Homo sapiens), Q9Y5K5 | inhibition, % (concentration not given with the values) | 330,000 compounds, 0.33% hits | purified proteasome/UCH37;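 active = mean of two replicates above 20%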;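 note: 0% = compound-free wells with enzyme and 100% = wells lacking proteasome; stock transfer was 100 nL into about 20 µL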
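Schedule: 30 min plus 25 min, room temperature / Material: human UCH37 within purified proteasomes / Technique: AMC fluorescence intensity at 355/460 nm / Buffer or medium: pH 7.4 Tris-HCl (50 mM) with ovalbumin, ATP-MgCl2, DTT / Controls: wells without proteasome as full block, compound-free enzyme plus substrate as uninhibited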
E coli growth: E. coli growth inhibition, primary screen, OD600; Escherichia coli growth, 23 h; hits give low values; OD600 absorbance (concentration not given with the values); 330,000 compounds, 0.21% hits; AID 1053175, 2014;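 active = OD600 absorbance below the run mean of sample wells minus 3.6 SD, in any replicate, cut at about 0.56 in these data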;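 note: stock transfer was 300 nL into about 60 µL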
A1 inh: caspase 3/7 activation in MEF A1-2A-BIM cells, primary screen, A1 inhibitor project, cell-based, luminescence, HTS. 330,000 compounds, 0.066% hits. Caspase-Glo 3/7 luminescence, 3 h; percent of clofoctol response, vehicle zero. caspase activation, % (test concentration not listed);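 active = over half of replicate activation scores above 10%, or exactly half above 10 with the replicate mean above 10; inconclusive = replicate mean below 10 yet half the replicates above 10; inactive = over half of replicates below 10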;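 note: wells of about 30 µL received 50 nL stock; many hits fall short of the cut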
T cruzi inh: inhibitors of intracellular T. cruzi growth, primary screen, luminescence, NIH3T3 host cells | T. cruzi beta-gal in NIH3T3, 90 h | inhibition, % (test concentration not listed) | 300,000 compounds, 1.4% hits | AID 1885, 2009;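 active = mean inhibition across valid replicates above about 55%, limit read from the data; inconclusive = mean below that limit but half or more replicates reach it; inactive = mean below it, under half of replicates reach it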;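 note: signal also drops with host cell toxicity which is not excluded here; 0% = plate median of DMSO wells and 100% = zero luminescence signal; higher percent means less beta-gal luminescence so fewer parasites; stock transfer was 50 nL into about 50 µL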
AF4-AF9 inh: inhibitors of AF4 peptide binding to AF9, primary screen, biochemical, AlphaScreen, biotin-AF4 peptide, FLAG-AF9, single point. inhibition, % at 10 µM. 350,000 compounds, 0.47% hits. AID 651704, 2012;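 active = every replicate reaching a set inhibition limit, whatever the replicate mean, cut at about 25% in these data; inconclusive = mean inhibition reaches that limit but some replicates miss it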;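 note: 0% = plate neutral control median and 100% = total signal loss; the record names both 10 and 1 µM as test concentration; the first replicate is given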
Target sequence (P42568 whole entry, looked up): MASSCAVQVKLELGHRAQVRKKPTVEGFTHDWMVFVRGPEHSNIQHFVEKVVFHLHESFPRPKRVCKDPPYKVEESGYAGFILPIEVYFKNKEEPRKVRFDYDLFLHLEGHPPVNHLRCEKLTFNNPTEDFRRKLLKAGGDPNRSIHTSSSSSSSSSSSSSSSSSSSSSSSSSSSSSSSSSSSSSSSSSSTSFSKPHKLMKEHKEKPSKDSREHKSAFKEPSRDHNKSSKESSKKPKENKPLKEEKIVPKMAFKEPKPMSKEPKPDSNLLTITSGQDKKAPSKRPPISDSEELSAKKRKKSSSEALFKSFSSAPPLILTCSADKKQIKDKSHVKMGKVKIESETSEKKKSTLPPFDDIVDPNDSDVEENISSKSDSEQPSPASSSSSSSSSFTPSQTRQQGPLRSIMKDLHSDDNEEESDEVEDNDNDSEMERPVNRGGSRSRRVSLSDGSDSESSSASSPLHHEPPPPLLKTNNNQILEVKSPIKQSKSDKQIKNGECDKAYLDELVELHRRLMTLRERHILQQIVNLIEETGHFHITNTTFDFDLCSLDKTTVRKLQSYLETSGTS
Ecoli rRNA inh OD600: second read-out of Ecoli rRNA inh, no call of its own (marks repeat the call); OD600 change, %; measured here: OD600 growth;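 optical density of the mix in the first replicate; 0 = DMSO median and -100 = no signal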
Ecoli rRNA inh RFP: also measured in Ecoli rRNA inh; calls as there; RFP signal change, %; measured here: RFP humanized mutant strains;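 first replicate; 0 = DMSO median and -100 = no signal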
The depositor's hits bear a star; i = inactive; ? = inconclusive; · = not tested or not shown. A portion of the library; rates above refer to the full screens.

#	smiles	Beta apoptosis	FGF22 binding	Ecoli rRNA inh	Ecoli rRNA inh OD600	Ecoli rRNA inh RFP
1	Cc1c(C(=O)N2CCC(C)CC2)cccc1[N+](=O)[O-]	-1.2	i	13.8	6.6	0.2
2	CN1CCN(c2nc3c(c(=O)n(C)c(=O)n3C)n2CC(N)=O)CC1	0.4	·	·	·	·
3	O=C(CCC1CCCCC1)Nc1ccccc1-c1ccccc1	·	·	-30.1	-61.2	-2.0
4	CCOc1ccc(-c2nnc3ccc(SCC(=O)N4CCCCC4)nn23)cc1	-5.2	i	4.0	7.2	2.0
5	Brc1ccc(-c2nnc(-c3ccccc3)o2)o1	-2.8	·	·	·	·
6	CCNc1nc2cccnc2s1	-5.1	i	-0.8	-14.2	-4.4
7	Cc1nc2ccccc2c(=O)n1NC(=O)c1ccc(C(C)(C)C)cc1	11.1	i	4.4	11.8	-0.4
8	O=[N+]([O-])c1ccc(NCc2ccc3c(c2)OCO3)cc1	-2.2	i	0.4	1.1	0.0
9	CC(=O)Nc1ccc(S(=O)(=O)Nc2nc3ccccc3nc2Nc2ccc(C(=O)O)c(O)c2)cc1	-2.5	·	9.8	6.4	2.6
10	COc1cc2c(cc1/C=C/C(=O)O)OC(C)C2 (centres undefined)	3.8	i	2.9	-5.8	-5.8
11	CCN1CCN(c2ccc(S(=O)(=O)N3CCCCC3)cc2N)CC1	-2.5	i	7.4	2.7	-3.8
12	O=C(OC1CCOC1=O)c1ccc2ncsc2c1 (centres undefined)	-4.8	·	·	·	·

#	UCH37 inh	E coli growth	A1 inh	T cruzi inh	AF4-AF9 inh
1	1.8	0.714	-1.8	-9.2	1.0
2	4.5	0.667	-0.1	-29.3	·
3	3.7	0.667	1.8	16.0	·
4	-1.1	0.761	0.2	10.7	-1.8
5	-2.3	0.638	-0.1	-3.6	·
6	6.7	0.666	0.2	-1.1	0.4
7	-0.3	0.663	0.8	-8.0	2.8
8	5.1	0.694	1.4	1.4	1.3
9	10.2	0.657	-0.3	·	-28.1
10	i	0.686	1.6	-9.0	-0.5
11	0.8	0.658	-1.4	·	6.8
12	0.1	0.699	0.2	-18.0	·

Already shown: entries from further up.
#	smiles	Beta apoptosis	FGF22 binding	Ecoli rRNA inh	Ecoli rRNA inh OD600	Ecoli rRNA inh RFP
1	Cc1c(C(=O)N2CCC(C)CC2)cccc1[N+](=O)[O-]	-1.2	i	13.8	6.6	0.2
2	CN1CCN(c2nc3c(c(=O)n(C)c(=O)n3C)n2CC(N)=O)CC1	0.4	·	·	·	·
3	O=C(CCC1CCCCC1)Nc1ccccc1-c1ccccc1	·	·	-30.1	-61.2	-2.0
4	CCOc1ccc(-c2nnc3ccc(SCC(=O)N4CCCCC4)nn23)cc1	-5.2	i	4.0	7.2	2.0
5	Brc1ccc(-c2nnc(-c3ccccc3)o2)o1	-2.8	·	·	·	·
6	CCNc1nc2cccnc2s1	-5.1	i	-0.8	-14.2	-4.4
7	Cc1nc2ccccc2c(=O)n1NC(=O)c1ccc(C(C)(C)C)cc1	11.1	i	4.4	11.8	-0.4
8	O=[N+]([O-])c1ccc(NCc2ccc3c(c2)OCO3)cc1	-2.2	i	0.4	1.1	0.0

#	UCH37 inh	E coli growth	A1 inh	T cruzi inh	AF4-AF9 inh
1	1.8	0.714	-1.8	-9.2	1.0
2	4.5	0.667	-0.1	-29.3	·
3	3.7	0.667	1.8	16.0	·
4	-1.1	0.761	0.2	10.7	-1.8
5	-2.3	0.638	-0.1	-3.6	·
6	6.7	0.666	0.2	-1.1	0.4
7	-0.3	0.663	0.8	-8.0	2.8
8	5.1	0.694	1.4	1.4	1.3

Next section.
#	smiles	Beta apoptosis	FGF22 binding	Ecoli rRNA inh	Ecoli rRNA inh OD600	Ecoli rRNA inh RFP
13	Cc1ccc(C(=O)N2CCN=C2SCc2ccc([N+](=O)[O-])cc2)cc1C	-1.0	i	-9.4	-4.3	0.7
14	O=C(c1ccc(Cl)c(S(=O)(=O)Nc2ccccc2C(=O)N2CCc3ccccc3C2)c1)N1CCc2ccccc2C1	6.6	·	·	·	·
15	O=C(CSc1ccc(-c2cccnc2)nn1)Nc1ccc(F)cc1	-3.9	i	-4.0	-9.9	-1.0
16	COc1ccccc1S(=O)(=O)CC(O)COc1ccc(C#N)cc1 (centres undefined)	0.7	·	4.9	7.8	-2.0
17	CCOC(=O)c1cc(-c2ccc(Cl)s2)[nH]n1	-11.1	i	-1.1	9.2	-3.1
18	COc1ccc(/C=C/C(=O)NCCOc2ccccc2OC)cc1	-5.9	·	·	·	·
19	CCOc1ccc(NC(=O)CSc2nncc(=O)n2N)cc1	-3.3	·	3.1	8.3	1.3
20	C/C(=N/NC(=O)CSc1ccccn1)c1ccc([N+](=O)[O-])cc1	-3.2	i	9.1	11.1	2.2
21	CC12CC3CC(C1)CC(C(=O)NNC(=O)c1ccncc1)(C3)C2	2.4	i	-0.4	-6.5	3.7
22	CC(=O)c1c(C)n(CCO)c2ccc(O)cc12	-7.2	i	16.6	9.1	-1.6
23	NNc1ncnc2c1cnn2-c1ccccc1	-2.6	·	·	·	·
24	COc1ccc(S(=O)(=O)N2CN(CCc3ccc(OC)c(OC)c3)c3nc4ccccc4nc32)cc1	0.0	i	-2.7	4.1	8.4

#	UCH37 inh	E coli growth	A1 inh	T cruzi inh	AF4-AF9 inh
13	2.4	0.714	0.3	24.3	3.6
14	2.1	0.68	0.3	-10.8	·
15	4.2	0.658	1.0	4.2	-1.5
16	1.4	0.719	-0.2	-5.2	-1.7
17	1.6	0.63	-1.3	7.0	2.4
18	5.1	0.691	0.6	10.9	·
19	9.3	0.658	-0.2	2.4	-5.2
20	·	·	-0.2	1.8	0.8
21	7.0	0.67	-0.4	·	2.3
22	1.6	0.659	0.4	-3.8	1.4
23	-3.2	0.734	-0.7	3.5	·
24	1.4	0.717	-0.2	11.1	-73.9

Later entries:
#	smiles	Beta apoptosis	FGF22 binding	Ecoli rRNA inh	Ecoli rRNA inh OD600	Ecoli rRNA inh RFP
25	CCOc1cc(C(=O)NCCN2CCOCC2)cc(OCC)c1OCC	-6.7	·	·	·	·
26	O=C(COC(=O)Cn1cnc2ccccc21)Nc1ccc(F)c(F)c1	-8.5	i	9.0	17.8	0.1
27	Cc1cc(C)c(NC(=O)C2CC(=O)N(Cc3ccccc3)C2)c(C)c1 (centres undefined)	0.2	·	-4.6	10.4	-1.0
28	COc1ccc(S(=O)(=O)Nc2cc([N+](=O)[O-])ccc2OC)cc1	-14.2	i	4.3	4.1	0.6
29	COc1ccccc1N(C)S(=O)(=O)c1ccc(C(=O)N(CC(N)=O)C(C)C)cc1	0.0	·	6.5	-0.5	-0.9
30	Cc1ccc(S(=O)(=O)N2CCOCC2)cc1C(=O)NCc1ccc2c(c1)OCO2	0.5	·	·	·	·

#	UCH37 inh	E coli growth	A1 inh	T cruzi inh	AF4-AF9 inh
25	4.2	0.697	?	-12.5	·
26	6.2	0.724	-0.6	·	2.6
27	1.1	0.697	-0.3	-4.4	-0.1
28	3.4	0.669	0.6	-11.4	7.0
29	2.5	0.651	1.2	-15.5	·
30	-1.3	0.707	0.0	3.3	·

Some of the entries so far, in transposed form.
#29 COc1ccccc1N(C)S(=O)(=O)c1ccc(C(=O)N(CC(N)=O)C(C)C)cc1
#30 Cc1ccc(S(=O)(=O)N2CCOCC2)cc1C(=O)NCc1ccc2c(c1)OCO2
assay / compound,29,30
Beta apoptosis,0.0,0.5
FGF22 binding,·,·
Ecoli rRNA inh,6.5,·
Ecoli rRNA inh OD600,-0.5,·
Ecoli rRNA inh RFP,-0.9,·
UCH37 inh,2.5,-1.3
E coli growth,0.651,0.707
A1 inh,1.2,0.0
T cruzi inh,-15.5,3.3
AF4-AF9 inh,·,·
